# Compound activity: PubChem BioAssay, several laboratories
# LANA-H2B inh: blockers of LANA interaction with H2A/H2B – biochemical, FP readout, HTS, primary screen; Protein LANA1 (Human herpesvirus 8 type P (isolate GK18)), Q9QR71; cell-free LANA-H2A/H2B peptide, fluorescence polarization; inhibition, % (test concentration not listed); 320,000 tested, 0.6% active; AID 2629, 2010; in the data active means inhibition mostly above about 10%, no sharp cut-off; inactive means mostly below about 6.7%;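 further: stock transfer was 7.5 nL into about 10 µL; 0% = median of vehicle wells and 100% = median of positive control wells; one replicate is shown; the record names a cut of 25% in any replicate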
# Target sequence (Q9QR71 whole entry, looked up): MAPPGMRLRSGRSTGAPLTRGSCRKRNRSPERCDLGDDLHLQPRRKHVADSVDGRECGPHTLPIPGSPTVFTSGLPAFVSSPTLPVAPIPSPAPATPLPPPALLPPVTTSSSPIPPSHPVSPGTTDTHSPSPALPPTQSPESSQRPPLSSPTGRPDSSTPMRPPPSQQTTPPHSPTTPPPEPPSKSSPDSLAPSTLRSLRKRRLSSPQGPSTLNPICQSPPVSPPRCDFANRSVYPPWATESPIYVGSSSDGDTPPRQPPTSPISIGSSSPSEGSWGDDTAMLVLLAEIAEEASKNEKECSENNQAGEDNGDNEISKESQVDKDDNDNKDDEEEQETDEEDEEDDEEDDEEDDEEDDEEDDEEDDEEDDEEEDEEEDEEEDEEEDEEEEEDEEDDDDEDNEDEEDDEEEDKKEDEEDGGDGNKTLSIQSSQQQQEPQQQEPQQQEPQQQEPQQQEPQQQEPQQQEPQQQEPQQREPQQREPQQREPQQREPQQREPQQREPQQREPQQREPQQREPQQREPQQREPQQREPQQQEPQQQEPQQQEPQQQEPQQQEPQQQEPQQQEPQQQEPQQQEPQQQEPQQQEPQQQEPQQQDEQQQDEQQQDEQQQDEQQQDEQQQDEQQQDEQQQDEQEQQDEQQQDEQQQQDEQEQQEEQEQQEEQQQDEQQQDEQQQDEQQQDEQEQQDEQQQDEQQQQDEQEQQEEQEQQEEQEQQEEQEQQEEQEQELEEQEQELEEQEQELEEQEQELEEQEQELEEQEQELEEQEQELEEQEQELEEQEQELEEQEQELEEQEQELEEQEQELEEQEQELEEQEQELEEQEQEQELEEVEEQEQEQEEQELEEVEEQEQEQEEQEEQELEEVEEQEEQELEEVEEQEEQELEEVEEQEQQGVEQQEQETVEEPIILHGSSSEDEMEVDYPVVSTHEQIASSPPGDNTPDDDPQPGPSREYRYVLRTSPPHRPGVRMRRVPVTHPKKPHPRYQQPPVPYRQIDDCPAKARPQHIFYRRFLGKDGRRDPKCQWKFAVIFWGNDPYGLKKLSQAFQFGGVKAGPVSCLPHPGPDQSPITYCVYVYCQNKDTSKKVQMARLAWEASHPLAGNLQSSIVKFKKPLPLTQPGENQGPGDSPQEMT
# HNF4A DNA FP: change in binding of human HNF4A to DNA, primary screen, biochemical, fluorescence polarization, FITC-DNA; 360,000 tested, 0.3% active; AID 1224865, 2016; 1 h; activity change, % at 10 µM; in the data active means activity change above about 30%, passing the limit was not always enough;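 further: controls were the assay level and a saturating level of protein; the project sought stronger binding though the title names inhibitors; some compounds called inactive have numbers as strong as hits; positive values seem to mean higher polarization but the record does not say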
# ALR inh: inhibitors of human ALR sulfhydryl oxidase, primary screen, biochemical, H2O2 detection, HRP-luminol luminescence, single point; inhibition, % (concentration not given with the values); 290,000 tested, 3.8% active; purified ALR, DTT oxidation;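 active means mean and each replicate at 75% or more; inconclusive means only one of the two met; inactive means neither met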;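 further: stock transfer was 7.5 nL into about 7.5 µL; 0% = neutral wells and 100% = wells with inactivated enzyme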
# Beta2AR agonist: beta2AR agonists driving receptor internalization, primary screen, cell-based, FAP fluorogen, flow cytometry; Beta-2 adrenergic receptor (Homo sapiens), P07550; Am2.2-beta2AR cells; reference of the scale not given here; response, % (concentration not given with the values); 340,000 tested, 0.43% active; AID 504454, 2011;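 active means response above a set limit, near 3 SD of response in nonfluorescent compounds, cut at about 42% in these data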;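 further: stock transfer was 100 nL into about 11 µL; a reference agonist was the positive control; negative values mostly stem from fluorescent compounds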
# Vif A3G: inhibitors of Vif binding to APOBEC3G peptide, primary screen, biochemical, TR-FRET, GST-Vif 1-94, biotin-A3G peptide, dose response retest (AID 1117319). TR-FRET GST-Vif / biotin-A3G peptide binding; higher % means a stronger effect; test concentration not given here; strong numbers were not always called active. 260,000 tested, 0.57% active. inhibition, %, or IC50 in µM where a hit was titrated;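 active means above the screen mean plus three standard deviations and confirmed in dose response; inconclusive means results disagree or hit not tested in dose response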;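 further: Vif residues 1-94 fused to GST binding biotinylated APOBEC3G peptide 110-148; 0% = full assay without inhibitor and 100% = GST in place of GST-Vif; retest series ran down from 100 µM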
# RanGTP-Imp inh: inhibitors of RanGTP-importin-beta interaction, primary screen, biochemical, FRET, CFP-Ran, YFP-importin-beta, homogeneous | AID 2216, 2009 | inhibition, % (concentration not given with the values) | cell-free CFP-Ran/YFP-importin-beta FRET ratio | 300,000 tested, 1.1% active | Ran GTPase (GTP-bound) - importin-beta complex;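 active means most replicates above 15%; inconclusive means exactly half above 15%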;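 further: 0% = DMSO wells and 100% = Ran loaded with GDP instead of GTP; wells of about 40 µL received 100 nL stock; the first replicate is given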
# Calb FLC: C. albicans growth inhibition with fluconazole, primary screen, CaCi-2 strain, Alamar Blue fluorescence; 300,000 tested, 0.57% active; growth inhibition, % (test concentration not listed); C. albicans CaCi-2 (fluconazole-resistant clinical isolate) + fluconazole, 48 h;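 active means most replicates above 75%; inconclusive means exactly half above 75%; inactive means most below 75%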;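 further: all wells also contain fluconazole at 8 µg/ml as a sub-toxic cotreatment; 0% = median of DMSO wells and 100% = median of geldanamycin control wells; wells of about 8 µL received 7.5 nL stock; the first replicate is given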
# * marks the source's active call; other numbers are inactive results; ? = inconclusive; nt = not tested or not shown; & = joins results of further samples.
SMILES,LANA-H2B inh,HNF4A DNA FP,ALR inh,Beta2AR agonist,Vif A3G,RanGTP-Imp inh,Calb FLC
CCOC(=O)CNC(=O)CNC(=O)c1nn(-c2ccc(OC)c(OC)c2)c(=O)c2ccccc12,5.7,-2.4,-5,6,6%,1.9,19
Cn1c(=O)n(C)c2cc(/C=N/NC(=O)c3cc4cc(Br)ccc4o3)ccc21,1.0,3.9,-11,1,-6%,2.4,-1
COc1cccc(C(=O)N(Cc2ccccc2)Cc2cc3cc4c(cc3[nH]c2=O)OCCO4)c1,2.3,4.0,-1,-5,-14%&9%,2.1,-13
N#C/C(=C\c1ccc(-c2cccc(Cl)c2)o1)C(=O)Nc1cccc2cccnc12,-0.6,6.9,-3,7,10%,-3.4,2
CN1CCN(c2nc3c(c(=O)n(C)c(=O)n3C)n2Cc2cccc3ccccc23)CC1,0.7,0.3,-8,-5,4%,-3.8,1
COC(=O)CN(c1ccccc1C)S(C)(=O)=O,1.1,1.1,?,1,2%,-1.8,-2
COc1cc([N+](=O)[O-])ccc1NC(=S)Nn1cnnc1,-7.5,-1.4,31,1,nt,-2.9,-3
CC(=O)c1ccc(N2CCN(C(=O)c3ccc(Cl)c(S(=O)(=O)NC4CC4)c3)CC2)c(F)c1,nt,2.9,nt,0,-4%,nt,nt
CC(NCC(=O)NCC(=O)Nc1ccc(F)cc1)c1cccc(C(F)(F)F)c1 (centres undefined),-0.7,2.5,2,3,nt,nt,nt
O=C(O)CCCN1C(=O)C2C3CC(C2C1=O)C1C(c2ccccc2)c2sc(=O)[nH]c2SC31 (centres undefined),-1.5,3.1,12,2,-9%,7.5,0
CC1CCCCN1C(=O)CCNC(=O)Cn1cnc2ccccc2c1=O (centres undefined),3.4,2.1,0,2,nt,5.1,1
CC1CCC/C(=N\Nc2ccc(Cl)c(C(=O)O)c2)C1 (centres undefined),0.9,-15,-9,-3,?,-3.2,-7
CCOCC(=O)Nc1c(C)n(C)n(-c2ccccc2)c1=O,6.7,nt,-2,nt,8%,2.7,-7
Fc1cccc(NC(=S)N2CCCC2)c1,0.1,-0.8,-8,-1,-5%,1.0,?
O=C(O)CC1S/C(=N/N=C2CCCCC2)N(c2ccccc2)C1=O (centres undefined),nt,1.6,nt,7,3%,6.3,-1
O=C(NCCc1ccccc1)c1cc2ncc(Br)cn2n1,-4.1,-10,-2,-11,-1%,-2.8,-9
CNC(=O)c1ccc(-c2ccc(F)cc2)s1,8.1,5.8,-17,-2,0%,-1.8,20
CCOC(=O)C1CCCN(C(=O)C(C)(C)Oc2ccc(Cl)cc2)C1 (centres undefined),4.5,-3.4,-45,7,-6%,5.8,4
FC(F)(F)Oc1ccc(NC(=S)NCCCN2CCOCC2)cc1,4.1,0.8,2,-2,-16%,-5.1,-5
COc1ccccc1/C=C/C(=O)OCC(=O)Nc1c(C)nn(-c2ccccc2)c1C,-4.6,3.5,0,2,-5%,nt,nt
Cc1cccc(Nc2nc(N)nc(CSc3nccc(C)n3)n2)c1,-0.6,1.2,-8,-19,30%,-0.7,?
Cc1cc(-c2ccc(/C=N/n3cnnc3)o2)c([N+](=O)[O-])cc1C,3.8,-1.6,nt,-8,4%,-3.0,10
C=CCNC(=O)COc1coc(CN2CCN(Cc3ccccc3)CC2)cc1=O,-3.3,-3.3,-3,1,-1%,8.5,3
O=C(CN1CCN(c2ncccn2)CC1)N(Cc1ccccc1)c1ccc(F)cc1,3.5,3.3,-19,0,2%,-1.1,6
COc1cc(SC#N)ccc1N=Cc1c(C)[nH]n(-c2ccc(C)cc2)c1=O,-4.6,7.3,100*,8,nt,-5.7,-7
Cc1ccc(-c2noc(CCCN3C(=O)c4ccccc4C3=O)n2)cc1,3.7,4.2,0,-7,5%,?,8
Nc1c(-c2cccc(Cl)c2)cnn1-c1ccccc1,0.9,-1.9,39,11,0%,?,-11
CCc1n[nH]c(=S)n1/N=C/c1cc(OC)cc([N+](=O)[O-])c1O,5.2,6.9,17,0,nt,0.8,35
Cc1ccc(S(=O)(=O)N2CCOCC2)cc1C(=O)N1CC(C)CC(C)C1 (centres undefined),-1.0,0.1,-3,-5,-2%,nt,nt
O=C(NCc1ccccc1)C1=C[C@@H](C2CCCCC2)C[C@@H](OCc2ccc(CO)cc2)O1,0.1,-1.3,6,13,-6%,4.6,-7
CC1CN(C(=O)CN2C(=O)c3ccccc3C2=O)CC(C)O1 (centres undefined),-0.9,0.0,-5,-4,-4%,-4.0,-13
CCOC(=O)c1c(C)oc2ccc(NS(=O)(=O)c3ccc(C(=O)O)cc3)cc12,0.0,-3.0,17,-7,6%,4.3,-7
Nc1cccn2c(-c3ccc(Cl)cc3)cnc12,11,17,29,5,14%,7.2,1
COc1ccc(S(=O)(=O)N2CCOCC2)cc1C(=O)N1CCCCCC1,2.0,0.9,-12,1,-1%,1.4,1
O=C(c1cc(-c2cccc(Cl)c2)on1)N1CCCCCC1,-0.7,-1.1,nt,-5,nt,3.3,-25
CCN(CC)C(=O)C(=O)Nc1ccc(OCc2ccccc2)cc1,-4.1,0.0,-11,1,-1%,-0.9,-1
CCN1C(=O)N[C@@H](CCc2ccccc2)[C@H](C(C)=O)[C@H]1C,0.2,1.3,nt,-9,nt,0.9,-12
COc1ccccc1CN1CCC(n2nccc2NC(=O)CCc2ccccc2)CC1,0.2,8.4,-4,8,nt,-2.2,-8
O=C(Cn1cccc1C(=O)c1ccccc1)NCCCN1CCOCC1,0.9,0.3,0,4,-2%,3.9,0
O=C(/C=C/c1ccc2c(c1)OCO2)NCC1CCCO1 (centres undefined),3.1,4.0,-7,8,0%,-0.9,-7
CCc1ncc(CN2CCC(C(=O)Nc3ccc(-n4nc(C)cc4C)cc3)CC2)cn1,2.8,-0.3,-24,-8,7%,2.4,-5
CCOC(=O)c1ccc(NC(=O)c2nc[nH]c2C(=O)N[C@@H](CCCCNC(=O)OC(C)(C)C)C(=O)OC(C)(C)C)cc1,2.3,-2.1,4,9,3%,-0.4,-2
CCc1c(C(=O)N/N=C/c2ccc(OCc3ccc(F)cc3)c(OC)c2)nnn1-c1nonc1N,0.2,0.3,nt,7,nt,5.5,23
CCN1CCN(C(=O)C2CCCN(S(=O)(=O)c3cccc4nsnc34)C2)CC1 (centres undefined),-2.9,0.5,-16,0,nt,-1.6,5
CN(c1ccc(C(=O)N2CCCCC2)cc1)S(C)(=O)=O,3.5,-1.5,-3,8,-3%,1.7,34

# 4 successive records from above, quoted:
SMILES,LANA-H2B inh,HNF4A DNA FP,ALR inh,Beta2AR agonist,Vif A3G,RanGTP-Imp inh,Calb FLC
CCOC(=O)c1ccc(NC(=O)c2nc[nH]c2C(=O)N[C@@H](CCCCNC(=O)OC(C)(C)C)C(=O)OC(C)(C)C)cc1,2.3,-2.1,4,9,3%,-0.4,-2
CCc1c(C(=O)N/N=C/c2ccc(OCc3ccc(F)cc3)c(OC)c2)nnn1-c1nonc1N,0.2,0.3,nt,7,nt,5.5,23
CCN1CCN(C(=O)C2CCCN(S(=O)(=O)c3cccc4nsnc34)C2)CC1 (centres undefined),-2.9,0.5,-16,0,nt,-1.6,5
CN(c1ccc(C(=O)N2CCCCC2)cc1)S(C)(=O)=O,3.5,-1.5,-3,8,-3%,1.7,34

# (cont.)
SMILES,LANA-H2B inh,HNF4A DNA FP,ALR inh,Beta2AR agonist,Vif A3G,RanGTP-Imp inh,Calb FLC
CC1(C)S[C@@H]2[C@H](NC(=O)C(C(=O)O)c3ccccc3)C(=O)N2[C@H]1C(=O)O (some centres undefined),27*,-2.9,nt,-2,-6%,nt,nt
COc1cc(C(=O)NC2CCN(Cc3ccccc3)CC2)cc(Cl)c1OC,-3.3,-2.8,-3,0,-8%,6.0,-8
O=C(Oc1coc(CSc2ncccn2)cc1=O)c1ccco1,-2.5,3.2,?,6,0%,4.0,-7
COc1ccccc1NC(=O)Nc1nnc(CC(=O)Nc2ccccc2C)s1,-1.9,3.2,-4,-6,5%,-2.6,-1
O=C(Nc1nnc(C2CC2)s1)c1ccc(S(=O)(=O)c2ccccc2)cc1,7.4,1.0,-2,6,65%,-3.2,-19
CCOCCCNC(=O)C(c1ccc(OC)cc1)N(Cc1cccs1)C(=O)CNC(C)=O (centres undefined),1.3,1.2,-2,-1,5%,0.2,-4
Cc1ccnc(NC(NC(=O)C(C)C)(C(F)(F)F)C(F)(F)F)c1,0.7,2.2,nt,11,-3%,1.4,-19
O=C(NCC(=O)N1CCN(c2ccccc2O)CC1)c1ccc2ccccc2c1,-2.5,-6.2,33,-9,nt,5.4,-2
Cc1ccc(N(C(=O)c2ccc3c(c2)OCO3)C2C=CS(=O)(=O)C2)cc1C (centres undefined),6.2,-1.0,2,-10,2%,-2.2,-8
O=C(CCOc1ccccc1)N1CCN(c2ccc(O)cc2)CC1,-2.4,-0.1,nt,-2,nt,-1.6,11
CCOC(=O)C1CCCN(C(=O)c2ccc3c(c2)OCO3)C1 (centres undefined),0.3,-3.3,-2,10,65%,?,8
O=C(O)/C=C/C(=O)Nc1ccc(Oc2ccc(NC(=O)/C=C/C(=O)O)cc2)cc1,nt,nt,nt,nt,?,3.6,-3
COc1ccc(NC(=O)C(Br)C(C)C)cc1 (centres undefined),8.2,-0.8,-14,5,-1%,5.8,6
Cc1ccc(NC(=O)CN2CCN(Cc3ccccc3)CC2)cc1Cl,-4.9,-2.3,-30,-3,nt,1.1,-5
CCOC(=O)c1ccc(NC(=O)c2ccc3c(c2)OCO3)cc1,-2.8,-3.5,-2,6,2%,-0.6,1
CC(=O)Nc1ccc(NC(=O)Cn2c(=O)n(-c3ccc(F)cc3)c(=O)c3oc4ccccc4c32)cc1,2.5,3.4,-28,1,-4%,0.6,1
COc1cccc(NC(=O)CSc2nnc(-c3ccc(C)cc3)o2)c1,-3.2,1.5,-18,5,4%,-2.4,18
Cc1c(/C(O)=C2/C(=O)C(=O)N(Cc3cccnc3)C2c2cccs2)cnn1-c1ccccc1 (centres undefined),-3.7,1.0,6,-12,4%,-0.2,4
O=C(NC1CCCCC1)C(c1cccs1)N(CC1CCCO1)C(=O)c1csnn1 (centres undefined),4.3,5.6,-6,-9,4%,0.3,1
CN(C)C=NC(=O)c1cn(-c2ccc(F)cc2)c(=O)c2ccccc12,-6.2,-3.1,-5,-1,3%,nt,4
CC1CCN(C(=O)CCCl)c2ccccc21 (centres undefined),nt,-4.0,nt,0,-3%,nt,nt
COc1ccc(-c2csc(-c3cccs3)n2)c(OC)c1,-1.7,2.8,-16,2,-12%,1.3,38
Cc1cccc(NC(=O)Cn2c(=O)n(C)c3ccccc32)c1,-1.5,0.2,2,-1,26%,0.7,-5
CCN(CCNC(=O)C1CCCN(S(=O)(=O)CC)C1)c1ccccc1 (centres undefined),-0.7,-2.8,99*,16,-2%,1.3,7
CCCn1nc(-c2nnc(-c3ccc(C)c(C)c3)o2)c2ccccc2c1=O,4.5,1.2,-4,-3,1%,-3.6,-7
CN(C)c1ccc(NC(=O)COC(=O)Cn2nnc3ccccc32)cc1,-0.2,-2.9,99*,6,nt,-2.9,3
COc1cc(C(=O)NCCCNc2ccc([N+](=O)[O-])cc2)cc(OC)c1OC,2.7,1.5,-3,-2,nt,-0.7,-14
O=C(O)/C=C/c1ccc(-c2cccc(C(F)(F)F)c2)o1,-0.7,1.3,4,3,4%,-4.5,42
CC1C(c2ccccc2)=[N+]([O-])C2(CCCC2)N1O (centres undefined),-2.4,-1.9,-11,-7,2%,3.2,-1
